Calb biofilm kill – mixtures killing C. albicans biofilm | 0.02% of 120,000 active | C. albicans biofilm persisters + clotrimazole, fluorescence viability; primary screen in compound mixtures of four per well | inhibition, % at 7.6 µM | AID 1242;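 active means inhibition above 30.3% in the primary screen of four-compound pools, then above 30% when the compound was retested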;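 further: compounds exposed to preformed 24 h biofilms for 48 h; the number belongs to the whole pool; some results filed as inactive read as strong as hits; inactives centre near 12; 0% = biofilm with clotrimazole alone and 100% = kill control; retested singly at about 60 µM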
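Probe or stimulus – Clotrimazole 50 µg/mL co-treatment · System – C. albicans biofilms · Schedule – 24 h biofilm formation, then 48 h compound exposure, 37 °C · Evaluation – percent inhibition of biofilm viability · Technique – 2-h Alamar Blue fluorescence, 535/590 nm excitation/emission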
The depositor's hits bear a star.

entry	molecule	Calb biofilm kill
1	O=C(CCCSc1nc2ccccc2[nH]1)NC1CCCCC1	22.8
2	CCN(CC)CCCNC(=O)CCC(=O)Nc1ccc2nc(N3CCCCC3)cc(C)c2c1	32.7
3	O=C(Cc1cccs1)Nc1nnc(-c2ccc(F)cc2)s1	17.9
4	O=C1CS/C(=N/N=C/c2ccco2)N1Cc1ccc(F)cc1	24.1
5	COc1ccc(NC(=O)N2CCC(n3cnc4ccccc43)CC2)cc1	9.5
6	Cc1c(NC(=O)c2cc(-c3ccccc3O)on2)c(=O)n(-c2ccccc2)n1C	16.0
7	COc1ccc(CCNc2cn[nH]c(=O)c2Cl)cc1OC	28.7
8	CC(=O)Nc1ccc(S(=O)(=O)Nc2nc3ccccc3nc2Nc2ccc(N)cc2)cc1	18.0
9	CCc1noc(C)c1C(=O)N1CCCC(CCC(=O)NCc2cccc(OC)c2)C1 (configuration not stated)	2.2
10	O=C(NCC(=O)N(c1cccc(F)c1)C(C(=O)NC1CCCC1)c1ccco1)c1ccco1 (configuration not stated)	11.4
11	O=C(COC(=O)c1cccs1)c1ccc2ccccc2c1	18.8
12	Cc1cccc2cc(CN(Cc3ccc(F)cc3)C(=O)N3CCOCC3)c(=O)[nH]c12	12.6
13	CC12c3ccccc3C(c3ccccc31)C1C(=O)N(Cc3cccnc3)C(=O)[C@H]12 (some centres not stated)	20.8
14	C[C@@H](C(=O)Nc1cccc(S(=O)(=O)N2CCOCC2)c1)N1C(=O)C2CC=CCC2C1=O (some centres not stated)	10.6
15	Cc1cccc(-n2nc(CC#N)c(C#N)c2N)c1	7.2
16	COc1ccc(C(=O)NCCSc2ccc(C)cc2)cc1	15.0
17	O=C(NCC1CCCO1)c1ccc(CSCc2cccc(F)c2)o1 (configuration not stated)	16.8
18	O=C(N/N=C/c1cc([N+](=O)[O-])ccc1O)Nc1ccccc1	24.1
19	NC(=O)c1cc[n+](CC(=O)c2ccc(NC(=O)c3ccccc3)cc2)cc1	4.2
20	CN1C(=O)C(O)(c2nnc(-c3ccccc3)o2)c2ccccc21 (configuration not stated)	21.0
21	COc1ccc(CCNc2c3ccccc3nc3ccccc23)cc1OC	15.1
22	Cc1cc(-c2ccc(Br)cc2)n[nH]1	11.8
23	Cc1cc(-c2nn(-c3ccccc3F)cc2CN2CCC(O)CC2)c(C)s1	13.3
24	COc1ccc(C(=O)N2CCN(C(C)=O)CC2)cc1S(=O)(=O)N1CCOCC1	6.7
25	CS(=O)(=O)c1ccc(Cl)c(NC(=O)CSc2nc3ccccc3c(=O)n2CCCN2CCOCC2)c1	10.4
26	Cc1cc(SCC(=O)c2ccccc2)n2ncc(-c3ccccc3)c2n1	4.8
27	CCCn1c(N2CCN(Cc3ccc(Cl)cc3)CC2)nc2ccccc21	18.2
28	O=c1oc2ccccc2nc1/C=C(O)/C=C/c1ccc(F)cc1	18.0
29	CCOC(=O)c1c(NC(=O)COc2ncnc3ccccc23)sc(C)c1C	5.5
30	c1ccc(C2Oc3ccccc3C3CC(c4cccs4)=NN32)cc1 (configuration not stated)	9.2

7 structures from above, sorted by length of the SMILES, high to low:
entry	molecule	Calb biofilm kill
13	CC12c3ccccc3C(c3ccccc31)C1C(=O)N(Cc3cccnc3)C(=O)[C@H]12 (some centres not stated)	20.8
28	O=c1oc2ccccc2nc1/C=C(O)/C=C/c1ccc(F)cc1	18.0
17	O=C(NCC1CCCO1)c1ccc(CSCc2cccc(F)c2)o1 (configuration not stated)	16.8
3	O=C(Cc1cccs1)Nc1nnc(-c2ccc(F)cc2)s1	17.9
1	O=C(CCCSc1nc2ccccc2[nH]1)NC1CCCCC1	22.8
11	O=C(COC(=O)c1cccs1)c1ccc2ccccc2c1	18.8
15	Cc1cccc(-n2nc(CC#N)c(C#N)c2N)c1	7.2

Entries by screen from above.
Entries 11–22 in Calb biofilm kill read 18.8, 12.6, 20.8, 10.6, 7.2, 15.0, 16.8, 24.1, 4.2, 21.0, 15.1, 11.8

Other compounds:
entry	molecule	Calb biofilm kill
31	O=C(CNC(=O)/C(=C\c1ccc(Br)cc1)NC(=O)c1ccccc1)OCc1ccccc1	14.6
32	COc1cc2c(cc1OC)-c1cc(Nc3ccc(N(C)C)cc3)nc(=O)n1CC2	10.5
33	O=C(c1ccccn1)N1CCN(c2ccc(C(F)(F)F)cn2)CC1	14.3
34	O=C(NCc1ccccn1)c1ccc2c(=O)n(CCc3ccccc3)c(=O)[nH]c2c1	19.5
35	O=C(/C=C/c1ccco1)NC(=S)NNC(=O)c1ccco1	8.0
36	CCc1ccc(NC(=O)CSc2nc3ccccc3c(=O)n2CCCC(=O)NCCCN2CCOCC2)cc1	16.3
37	Cc1cc(=O)oc2c(C(=O)/C=C\c3cccs3)c(O)ccc12	19.5
38	CCCCn1nnnc1SCC(=O)c1ccccc1F	17.0
39	CCOc1cc(C2NC(=O)NC(c3ccccc3)=C2C(=O)c2ccccc2)c(Br)cc1OCC(=O)O (configuration not stated)	15.8
40	O=C(CSc1cn(Cc2ccccc2)c2ccccc12)NCc1ccc(F)cc1	12.4
41	C[n+]1cccc(C(=O)NNC(=O)C23CC4CC(CC(C4)C2)C3)c1	27.5
42	COc1cc(C)ccc1OCCOc1c(C)cc(Cl)cc1Cl	20.2
43	O=C(N/C(=C/c1ccc(Br)cc1)C(=O)N1CCCC1)c1cccs1	16.9
44	Fc1ccccc1CSc1nnc2ccc(-c3ccncc3)nn12	19.1
45	Cc1ccc(NC(=O)CN(C)CC(=O)Nc2ccccc2C#N)cc1	17.3
46	O=S1(=O)[C@H]2C[C@@H]3C=C[C@]2(CN1Cc1ccc(C(F)(F)F)cc1)O3	12.0
47	O=C(NCCCN1CCCC1)c1cc(Sc2ccc(F)cc2)nc2ccccc12	10.9
48	Cc1cccc(C(=O)N2CCc3c([nH]c4ccccc34)C2CC(C)C)n1 (configuration not stated)	6.5
49	COc1cccc(C2C(C#N)=C(N)Oc3cc(N)ccc32)c1OC (configuration not stated)	5.1
50	CCN(CC)CCNC(=O)CNC(=S)N(CCCN1CCOCC1)Cc1cccs1	17.5
51	Fc1ccc(-c2cnc3n2CCCCC3)cc1	20.4
52	COc1ccc(NC(=O)/C(=C/c2ccc3c(c2)OCO3)NC(C)=O)cc1	9.6
53	CCOC(=O)c1c(/N=C/C2C(=O)CCCC2=O)sc(C)c1C	10.6
54	Cc1cc(NC(=O)COC(=O)c2cc(S(=O)(=O)N(C)c3ccccc3)ccc2Cl)no1	17.3
55	COc1ccc(NC(=S)N2CCC(C(=O)c3ccc(F)cc3)CC2)c(OC)c1	7.5
56	O=C(c1ccc(COc2ccccc2Cl)o1)N1N=C(C(F)F)CC1(O)C(F)F (configuration not stated)	11.0
57	CCC(=O)NNC(=O)CCC(=O)Nc1ccc(C)cc1C	-0.2
58	Nc1ccc(N=Nc2ccc(N)cc2)cc1	16.4
59	CC1CN(CCCCOc2ccc(F)cc2)CC(C)O1 (configuration not stated)	16.7
60	CN(C)c1nc(-c2ccccc2)ncc1S(=O)(=O)c1ccccc1	13.7

entry	molecule	Calb biofilm kill
61	Cc1cccc(CSCCNC(=S)Nc2ccccc2)c1	8.0
62	N#C/C(=C\c1cccs1)C(=O)Nc1ccccn1	22.6
63	N#C/C(=C\c1cccc(Oc2ccccc2)c1)C(=O)N1CCOCC1	14.3
64	C=CCn1c(C)cc(C(=O)COC(=O)/C=C/c2cccc(OC)c2)c1C	4.5
65	COc1cc(NC(=O)CN2C(=O)C(c3ccccc3)=NC2(C)C)cc(OC)c1	9.2
66	CC1(c2ccc(Cl)cc2)NC(=O)CS1 (configuration not stated)	15.3
67	CCCCn1c2ccccc2c2cc(CC(N)=O)ccc21	23.3
68	COc1cc(/C=C2\C(=O)N(CCC#N)N=C2C)ccc1OCC(=O)Nc1ccccc1	-12.2
69	CO/N=C/C1CCN(c2ncc(C(F)(F)F)cc2Cl)C1=O (configuration not stated)	15.2
70	CS(=O)(=O)NN1C(=O)c2ccccc2NC1c1c[nH]c2ccccc12 (configuration not stated)	19.9
71	O=C(N/N=C/c1cn(-c2ccccc2)nc1-c1cccs1)c1ccncc1	14.2
72	COc1cc(/C=N/Nc2nc(C)cc(=O)[nH]2)ccc1OC(=O)c1cccnc1	7.5
73	CN(C)C(=O)c1c([N+](=O)[O-])c(C(C)(C)C)nn1C	0.8
74	O=C1CN(C(=O)COC(=O)CNC(=O)c2ccccc2)c2ccccc2N1	11.8
75	CC(=O)Nc1ccc(C2(c3ccc(NC(C)=O)cc3)C(=O)Nc3ccccc32)cc1	8.0
76	COc1cccc(CCc2nnc(CCC(=O)NC(C)Cc3cccs3)o2)c1 (configuration not stated)	7.3
77	c1ccc(-c2nnc(-c3ccncc3)nc2-c2ccccc2)cc1	24.8
78	NS(=O)(=O)c1ccc(Nc2nc3ccccc3nc2NS(=O)(=O)c2cccc([N+](=O)[O-])c2)cc1	9.4
79	O=C(NCCN1CCN(c2ccccc2)CC1)C1CCN(S(=O)(=O)c2cccc3nsnc23)CC1	17.4
80	CCCC(=O)c1c[nH]c(C(=O)N2CCOCC2)c1	5.5
81	O=C(Nc1cccnc1)OC1CCCC1	14.5
82	Cc1cccc(-n2c(C)cc(/C=C3\NC(=O)NC3=O)c2C)c1	23.9
83	CC(C)CC(C(=O)Nc1oc(-c2ccccc2)c(-c2ccccc2)c1C#N)N1C(=O)c2ccccc2C1=O (configuration not stated)	13.5
84	CC1Cc2ccccc2N1C(=O)COC(=O)c1ccc(Br)o1 (configuration not stated)	10.3
85	Cc1nc(N(C)C)c2sc(=S)n(-c3ccccc3)c2n1	13.6
86	C/C(Nc1ccccc1C(F)(F)F)=C1/CCOC1=O	3.6
87	COc1ccc2[nH]c(C(=O)Nc3ccc(F)cc3Br)cc2c1	8.3
88	S=C(NCc1ccco1)Nc1ccccc1	12.5
89	COc1ccccc1C1CC(c2ccccc2)=NN1S(=O)(=O)c1ccccc1 (configuration not stated)	7.8
90	O=C(CCN1C(=O)COc2ccccc21)N1CCN(c2ccccc2)CC1	20.5

entry	molecule	Calb biofilm kill
91	CCc1ccc(OCC(=O)Nc2ccc(N3CCN(S(C)(=O)=O)CC3)cc2)cc1	7.8
92	O=C1NC(=S)N/C1=C/c1ccc(Oc2ccc(C(F)(F)F)cc2[N+](=O)[O-])c(Cl)c1	6.3
93	CCC(Sc1ncccn1)C(=O)Nc1cc(C)on1 (configuration not stated)	20.5
94	COC(=O)c1ccccc1OC(=O)c1cc[n+]([O-])cc1	12.0
95	Cc1ccc(-c2csc(NC(=O)c3cnccn3)n2)cc1C	4.2
96	Cc1c(Cl)cccc1NC(=O)CSc1ccc(-c2cccnc2)nn1	18.8
97	COc1ccc(CCNc2cc(N3CCN(C(=O)c4ccc(C)cc4)CC3)ccc2[N+](=O)[O-])cc1OC	3.9
98	CCOC(=O)C1=C[C@]2(CC)CCCN3CCc4c(n1c1ccccc41)[C@@H]32	-7.3
99	C/C(=N\NC(=O)C1COc2ccccc2O1)c1cc2ccccc2o1 (configuration not stated)	7.5
100	COc1ccc(-c2nnc(OCc3nc4ccccc4n3C)c3ccccc23)cc1	9.2
101	COCCNc1ccc(N2C(=O)CCCC2=O)cc1[N+](=O)[O-]	7.5
102	CCOC(=O)CN1C(=O)S/C(=C/c2ccc(O)c([N+](=O)[O-])c2)C1=O	7.5
103	COc1ccc(/C=N/NC(=O)CN(Cc2ccccc2)S(=O)(=O)c2ccc3c(c2)OCCO3)cc1	17.8
104	CCCc1c(C(=O)NNc2cc(C(F)(F)F)ccc2Cl)cnn1-c1ccccc1	17.9
105	O=C1NC(c2ccccc2)=C(c2ccc3ccccc3n2)C(c2ccc(F)cc2)N1 (configuration not stated)	11.5
106	CCCCSc1nnc(-c2ccc(NC(C)=O)cc2)n1C	18.9
107	Cc1ccc2c(COC(=O)c3c(C)noc3C)cc(=O)oc2c1	11.0
108	Cc1cc(NC(=O)CSc2nc3cc(Cl)ccc3c(=O)n2CC(C)C)no1	12.8
109	CCCNC(=O)NC(=O)COC(=O)CNS(=O)(=O)/C=C/c1ccccc1	17.9
110	O=C1/C(=C/c2cccc([N+](=O)[O-])c2)CCc2ccccc21	16.8
111	Cc1cccc(C(=O)NC(=S)N2CCc3ccccc3C2)c1	18.7
112	Cc1nc2ccc([N+](=O)[O-])cc2s1	7.0
113	N#CC1=C(N)Oc2n[nH]c(-c3cccnc3)c2C1c1ccc([N+](=O)[O-])o1 (configuration not stated)	-0.6
114	COC(=O)C1CCN(C(=O)Cc2c(OC)ccc3cc(Br)ccc23)CC1	-0.5
115	Cc1ccc2cc(NC(=O)c3cccc(F)c3)ccc2n1	22.6
116	COc1ccccc1NC(=O)Nc1nnc(CC(=O)Nc2ccccc2C)s1	24.2
117	Cc1ccc(NC(=O)CCC(=O)NNC(=O)C(C)(C)C)c(C)c1	7.1
118	O=S(=O)(Cc1ccccc1)NCC1CCCN(Cc2ccc3nonc3c2)C1 (configuration not stated)	15.9
119	O=C(Cc1ccccc1)NCc1ccccn1	5.3
120	O=C(CSc1ccc(-c2ccccc2)nn1)N1CCN(c2ccccc2)CC1	15.9
121	Cn1c(SCC(=O)c2ccc3c(c2)OCCO3)nnc1C1CC1	-9.6
122	CC(=O)Nc1ccc(/C=N/NC(=O)CNS(=O)(=O)c2ccccc2)cc1	11.3

Compound activity deposited in PubChem BioAssay by PCMD.

The list is partial. The share of hits here may be higher or lower than overall.
